MT1-MMP act inh = blockers of MT1-MMP proenzyme processing, primary screen, HT1080 RFP-PRO-GFP cells, GFP/RFP fluorescence. Matrix metalloproteinase-14 (Homo sapiens), P50281. GFP/RFP ratio fluorescence, overnight; percent of plate control window, DMSO zero. GFP/RFP ratio change, % at 20 µM. 360,000 tested, 0.061% active. AID 651647, 2012;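 active means GFP/RFP ratio change of at least 30% with cell ATP level not reduced by more than half and red fluorescence within 50% of control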; further: strong numbers were not always called active
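Assay system: HT1080 cells carrying an RFP-PRO-GFP reporter | Dosing: Single dose of 20 µM compound, 1% DMSO final | Incubation: Cells overnight before dosing, compound overnight, 37 °C, 5% CO2 | Evaluation: GFP/RFP fluorescence ratio | Control set: DMSO and RFP-L50D-GFP cell wells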
CSC inhib = cancer stem cell viability inhibitors, primary screen, luminescence | cancer stem cell-like cells viability | inhibition, % at 7.5 µM | AID 2717, 2010 | 300,000 tested, 1.1% active;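 active means mean at 75% or more and at least half the replicates too; tested in HMLE shEcad cells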;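 further: 0% = median of negative and 100% = median of positive control wells; the first replicate is given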
eIF4H FP inh = human eIF4H binding inhibitors, primary screen, translation initiation inhibitor project, biochemical, uHTS, fluorescence polarization; Eukaryotic translation initiation factor 4H (Homo sapiens), Q15056; eIF4H fluorescence polarization binding assay; inhibition, % at 35 µM; 290,000 tested, 0.94% active;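 active means 50% or more with normal probe brightness, or confirmed in later tests; about a fifth of its hits are not listed in these tables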;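 further: calls also rest on retests at 20 µM and on dose response follow-up; 0% = protein and probe with vehicle and 100% = probe without protein; strong numbers were not always called active; many hits fall short of the cut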
Rce1 inh = yeast Rce1p protease inhibitors, primary screen, biochemical, fluorescence, cell-free homogeneous | 290,000 tested, 0.27% active | calls only | yeast membranes, quenched prenylated peptide cleavage fluorescence | CAAX prenyl protease 2 (Saccharomyces cerevisiae (strain ATCC 204508 / S288c)), Q03530;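 active means fall in fluorescence gain of 50% or more versus controls, with final raw signal at or below 3038400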;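 further: plate controls were neutral control wells for no effect and wells lacking membranes for full effect; tested at 10 µM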
Yeast UUG start = modulators of yeast start codon fidelity, primary screen, whole organism, S. cerevisiae, single point, plate reader; 350,000 tested, 0.13% active; activity score, % at 18.7 µM; AID 602363, 2012; S. cerevisiae UUG-firefly luciferase reporter, luminescence/redox ratio;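 active means replicate mean at a twofold rise or more, about +100% in these data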;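 further: firefly luciferase made from a UUG start codon reports start codon fidelity; reporter light over untreated wells divided by growth signal over untreated wells; some hits fall short of that in this replicate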
PABP polyA inh = PABP poly(A) RNA binding inhibitors, primary screen, biochemical, fluorescence polarization, uHTS; Polyadenylate-binding protein 1 (Homo sapiens), P11940; inhibition, % at 35 µM; 290,000 tested, 1% active; AID 2014, 2009;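 active means 50% or more with normal probe brightness, or confirmed in later tests; about a fifth of its hits are not listed in these tables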;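 further: calls also rest on retests at 20 µM and on dose response follow-up; controls were probe without protein and protein plus probe with vehicle; some compounds called inactive have numbers as strong as hits; many hits fall short of the cut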
Target sequence (P11940 whole entry, looked up): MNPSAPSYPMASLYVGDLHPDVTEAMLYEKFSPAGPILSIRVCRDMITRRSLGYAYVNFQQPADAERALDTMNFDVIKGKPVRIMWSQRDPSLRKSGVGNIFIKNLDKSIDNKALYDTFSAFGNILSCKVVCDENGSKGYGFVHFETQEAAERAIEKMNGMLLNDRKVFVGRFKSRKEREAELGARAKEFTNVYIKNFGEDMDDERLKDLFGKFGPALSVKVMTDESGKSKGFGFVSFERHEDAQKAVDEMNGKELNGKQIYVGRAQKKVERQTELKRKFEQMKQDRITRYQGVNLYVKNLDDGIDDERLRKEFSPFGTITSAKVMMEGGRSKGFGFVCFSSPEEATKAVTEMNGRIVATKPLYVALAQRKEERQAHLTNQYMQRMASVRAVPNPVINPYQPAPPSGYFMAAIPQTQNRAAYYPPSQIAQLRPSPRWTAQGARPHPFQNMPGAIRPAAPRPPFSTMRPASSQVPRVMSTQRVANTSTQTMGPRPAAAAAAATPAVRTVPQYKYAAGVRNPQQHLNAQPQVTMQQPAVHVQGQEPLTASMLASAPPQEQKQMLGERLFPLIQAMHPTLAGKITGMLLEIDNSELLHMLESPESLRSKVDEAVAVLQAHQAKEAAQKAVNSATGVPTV
HIV Env fusion = inhibitors of HIV-1 Env-driven cell-cell fusion, primary screen, HeLa-JRFL effector, CEM21 target cells, luciferase | inhibition, % at 12.3 µM | 360,000 tested, 1.1% active | AID 651610, 2012;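 active means mean replicate inhibition score of at least 50 and every replicate individually at or above 50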;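 further: 0% = plate neutral controls and 100% = maraviroc near 300 nM; one replicate is shown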
eIF4H FP inh retest = recorded beside eIF4H FP inh, whose call it bears; inhibition, %; compound at 20 µM; confirmation average;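 mean of two retest wells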
PABP polyA inh retest = recorded beside PABP polyA inh, whose call it bears; inhibition, %; compound at 20 µM; confirmation repeats;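 mean of two retest wells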
MT1-MMP act inh RFP = recorded beside MT1-MMP act inh, whose call it bears; RFP signal change, %; measured here: RFP expression control read;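 0 = vehicle wells; hits needed this value within 50% of zero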
* = called active by the depositor; i = inactive; / = no result given. A portion of the library. The share of hits here may be higher or lower than overall.

SMILES	MT1-MMP act inh	MT1-MMP act inh RFP	CSC inhib	eIF4H FP inh	Rce1 inh	Yeast UUG start	PABP polyA inh	HIV Env fusion	others
C=CCCN(C(C(=O)OC)C(C)C)S(=O)(=O)c1ccccc1Br (stereo unspecified)	1	0	3	-7	i	-20	-15	11
Cc1c(NS(=O)(=O)c2cccc(C(=O)N3CCCC3)c2)c(=O)n(-c2ccccc2)n1C	-2	6	2	/	/	-2	/	-10
CC(C)C(NC(=O)CCN1C(=O)c2ccccc2C1=O)c1ccccc1 (stereo unspecified)	2	2	/	7	i	-13	-4	-7
O=C(Nc1ccccc1)N1CCCC(c2nc(-c3ccc(F)cc3)no2)C1 (stereo unspecified)	-8	-5	7	-8	i	-7	-5	/
COc1ccc(/C=C(\NC(=O)c2ccc(C)cc2)C(=O)NCCCn2ccnc2)cc1	0	4	-9	-9	i	-1	-3	-18
COc1ccc(-c2nc(S(=O)(=O)c3ccccc3)c(N3CCN(C)CC3)o2)cc1	-8	-4	/	/	/	-13	/	-12
COC(=O)c1sc2ccccc2c1NC(=O)c1ccc(S(=O)(=O)N2CCCC(C)C2)cc1 (stereo unspecified)	-6	-4	29	-13	i	-7	-5	-21
Cc1cc(N/N=C/c2ccc(Cl)cc2)nc(NCc2ccccc2)n1	-1	-1	29	-10	i	/	-8	6
O=C(Cn1nnc2ccccc21)c1ccccc1	2	1	-2	-7	i	36	14	-11
O=C(COc1ccc(Cl)cc1)NNC(=O)CSc1nncs1	4	3	5	-4	i	-11	-5	-31
CC(=O)Nc1ccc(-c2ccnc3c2CC(C)(C(=O)NCCN(C)C)O3)cc1 (stereo unspecified)	1	2	/	/	/	-14	/	-5
CN(Cc1ccsc1)C(=O)CCc1nnc(Cc2c[nH]c3ccccc23)o1	-1	5	-2	2	i	/	3	5
COc1ccccc1C(=O)N(C)CC(=O)Nc1ccc(N2CCOCC2)cc1	-2	1	-9	/	/	-4	/	/
O=C(COC(=O)/C=C/c1ccc([N+](=O)[O-])cc1)NC(c1ccccc1)c1ccccc1	0	8	21	1	i	/	0	-3
CCCOc1ccc(CCC(=O)O)cc1	-3	-1	4	7	i	/	14	4
CCCCNC(=O)N1CCN(c2ccnc3cc(Cl)ccc23)CC1	2	-3	4	7	i	-10	3	/
O=C(CCCN1C(=O)/C(=C/c2cccs2)SC1=S)Nc1ccc(C(=O)O)cc1	0	2	-17	5	i	/	6	14
COc1ccc(Cc2nnc(NC(=O)c3cc(OC)c(OC)c(OC)c3)s2)cc1OC	8	8	13	-3	i	0	-4	6
O=C(NC1CCCCC1)C(c1ccccn1)N(C(=O)c1csnn1)c1ccccc1 (stereo unspecified)	2	3	-22	-8	i	-19	-13	0
COc1cccc(NC(=O)CN2CCN(CC(=O)Nc3ccccc3Cl)CC2)c1	-4	0	-6	-5	i	-23	-2	12

Continued; the last 3 above are carried over.
SMILES	MT1-MMP act inh	MT1-MMP act inh RFP	CSC inhib	eIF4H FP inh	Rce1 inh	Yeast UUG start	PABP polyA inh	HIV Env fusion	others
COc1ccc(Cc2nnc(NC(=O)c3cc(OC)c(OC)c(OC)c3)s2)cc1OC	8	8	13	-3	i	0	-4	6
O=C(NC1CCCCC1)C(c1ccccn1)N(C(=O)c1csnn1)c1ccccc1 (stereo unspecified)	2	3	-22	-8	i	-19	-13	0
COc1cccc(NC(=O)CN2CCN(CC(=O)Nc3ccccc3Cl)CC2)c1	-4	0	-6	-5	i	-23	-2	12
CCOC(=O)c1cnc2ncnn2c1N	-1	-2	-12	-9	i	/	-1	-3
O=C(Nc1nonc1-c1ccc(F)cc1)c1ccco1	3	5	-9	-15	i	-16	8	-7
CCOc1ccc(NC(=O)COC(=O)c2ccc(S(=O)(=O)N3CCOCC3)cc2)cc1	1	2	-5	/	/	-6	/	2
O=C(Nc1cc(S(=O)(=O)N2CCOCC2)ccc1N1CCCC1)C1CC1	-2	0	-16	5	i	-34	5	5
O=C(NCc1cccc(Cl)c1)C1Cc2c(-c3ccc(Cl)cc3)ccnc2O1 (stereo unspecified)	-3	-9	/	/	/	-5	/	-20
Cc1ccc(-c2csc(NC(=O)c3ccc(S(=O)(=O)N4CCc5ccccc54)cc3)n2)cc1	-3	-26	-5	-4	i	-32	6	38
COc1ccc(-n2c(COc3ccc(Cl)cc3)nnc2SCc2ccc(C#N)cc2)cc1	7	-10	/	-8	i	-10	-5	-1
CS(=O)(=O)N(CC(=O)Nc1cccc(Cl)c1Cl)c1ccccc1	-2	-3	-8	-6	i	17	-9	-49
Cc1cccc(-n2c(N)cc(=O)nc2SCC(=O)Nc2ccccc2)c1	-3	-2	-5	-4	i	/	2	/
Cc1c(N2C(=O)SC(CC(=O)O)C2=O)c(=O)n(-c2ccccc2)n1C (stereo unspecified)	-3	0	/	-2	/	-9	8	-96
CSc1ccc(NC(=O)Nc2ccc(C(=O)NCC(=O)O)cc2)cc1	-1	5	-6	9	i	/	3	-10
CCSc1nnc(NC(=O)C(NC(=O)c2ccc(Cl)cc2)C(C)C)s1 (stereo unspecified)	1	-6	/	-1	i	3	4	/
COCCCC1CCN(C(=O)c2cc(COc3ccc(C)nc3)on2)CC1	-4	-16	0	-12	i	-9	-4	7
COc1ccc(C2CC(=O)Nc3n[nH]c(-c4ccccc4)c32)cc1OC (stereo unspecified)	5	5	/	-7	i	/	-10	6
O=C(NNC(=O)c1nc(Cl)ccc1Cl)c1ccc(F)cc1	2	5	-16	-17	i	-10	-2	-10
CC(=O)NC1=NN(C(C)=O)C(c2sccc2C)S1 (stereo unspecified)	-1	0	-11	-6	i	0	0	-63
O=C(Nc1nnc(SCc2ccc(F)cc2)s1)c1ccc2c(c1)C(=O)N(c1ccccc1Cl)C2=O	4	4	11	-5	i	/	-1	1
Cc1cc(Cl)c(OCCCNC2CCCC2)c(Br)c1	4	2	-9	-2	i	2	-3	-54
COc1cccc(NC(=O)c2cnc(SC)nc2C)c1	2	1	-12	-8	i	-11	1	-4
O=C(CN1CCN(S(=O)(=O)c2ccccc2)CC1)Nc1ccc2c(c1)OCO2	-2	2	9	3	i	-16	-5	/

Random excerpt: six compounds from above, in no set order.
SMILES	MT1-MMP act inh	MT1-MMP act inh RFP	CSC inhib	eIF4H FP inh	Rce1 inh	Yeast UUG start	PABP polyA inh	HIV Env fusion	others
O=C(CN1CCN(S(=O)(=O)c2ccccc2)CC1)Nc1ccc2c(c1)OCO2	-2	2	9	3	i	-16	-5	/
CSc1ccc(NC(=O)Nc2ccc(C(=O)NCC(=O)O)cc2)cc1	-1	5	-6	9	i	/	3	-10
COc1ccc(Cc2nnc(NC(=O)c3cc(OC)c(OC)c(OC)c3)s2)cc1OC	8	8	13	-3	i	0	-4	6
COc1ccccc1C(=O)N(C)CC(=O)Nc1ccc(N2CCOCC2)cc1	-2	1	-9	/	/	-4	/	/
COc1cccc(NC(=O)CN2CCN(CC(=O)Nc3ccccc3Cl)CC2)c1	-4	0	-6	-5	i	-23	-2	12
Cc1c(N2C(=O)SC(CC(=O)O)C2=O)c(=O)n(-c2ccccc2)n1C (stereo unspecified)	-3	0	/	-2	/	-9	8	-96

Returning to the listing with the three entries that preceded the break.
SMILES	MT1-MMP act inh	MT1-MMP act inh RFP	CSC inhib	eIF4H FP inh	Rce1 inh	Yeast UUG start	PABP polyA inh	HIV Env fusion	others
Cc1cc(Cl)c(OCCCNC2CCCC2)c(Br)c1	4	2	-9	-2	i	2	-3	-54
COc1cccc(NC(=O)c2cnc(SC)nc2C)c1	2	1	-12	-8	i	-11	1	-4
O=C(CN1CCN(S(=O)(=O)c2ccccc2)CC1)Nc1ccc2c(c1)OCO2	-2	2	9	3	i	-16	-5	/
O=C(O)c1cc2c(s1)-c1ccccc1CC2	6	3	2	8	i	-22	0	11
COc1ccccc1NC(=O)C(NC(=O)c1ccc(C)cc1)c1ccccc1 (stereo unspecified)	1	-2	-5	-3	i	-17	-1	-4
COc1ccccc1NC(=O)c1cc2c(CO)cnc(C)c2oc1=Nc1cccc(C(N)=O)c1	-5	0	12	86	i	-17	11	8	eIF4H FP inh retest=-5;PABP polyA inh retest=7
O=C(c1cccc(S(=O)(=O)N2CCOCC2)c1)N(Cc1ccco1)Cc1cccs1	6	-3	-17	/	/	-4	/	/
N=C1N(/N=C/c2ccccc2)C(=Nc2ccccc2)C(=S)N1c1ccccc1	3	-1	-4	0	i	-21	-1	-246
O=c1c2cc(Br)ccc2[nH]c(=S)n1Cc1ccccn1	/	/	16	-2	i	/	-11	/
COc1ccccc1NC(=O)COC(=O)C1CCN(/C=C/C(=O)C(F)(F)F)CC1	0	5	-9	-1	i	/	-4	/
CCSc1cc(N2CCCC2)nc(-c2ccc(C)cc2)n1	3	3	39	3	i	/	6	/
CC1CCCCN1C(=O)CCNS(=O)(=O)c1ccc2c(c1)c(=O)n(C)c(=O)n2C (stereo unspecified)	-3	4	-12	-8	i	-13	-3	-4
Cc1cccc(N(C(=O)c2snc(C(N)=O)c2N)C(C)C(=O)NCC2CCCO2)c1 (stereo unspecified)	-1	0	-11	8	i	6	-11	8
O=C(NCc1ccccc1)c1c[nH]c2ccccc2c1=O	4	-3	7	-5	/	-8	-12	-2
CN(C)/N=C/c1cc([N+](=O)[O-])ccc1O	4	-2	0	-2	i	/	1	-1
O=C(CSc1ccc2nnc(-c3ccccn3)n2n1)N1CCOCC1	-2	0	-4	-5	i	-17	-9	0
NC(=O)Cc1nc(-c2ccc(Br)cc2)cs1	1	1	-6	-3	i	/	-5	-21
C=CCOCCN(CCOCC=C)C1=NS(=O)(=O)c2ccccc21	-3	1	1	8	i	/	-2	14
COCCNC(=O)COc1ccccc1C	-4	2	-4	-1	i	-9	0	/
O=C1OCCC1Sc1ncnc2sccc12 (stereo unspecified)	7	4	-5	-4	i	-22	-2	/
CN(CC(=O)N1CCCCC1)S(=O)(=O)c1cccc2cccnc12	-2	3	-8	0	i	-14	-8	-15
O=C(Cn1c(-c2cscn2)nc2ccccc21)Nc1ccccc1F	3	5	-1	-2	i	-15	4	-76
O=C(COC(=O)C1=COCCO1)NC(=O)c1ccc(OC(F)F)cc1	1	-3	-15	2	i	-3	-5	1
O=C(c1ccccn1)N1CCN(c2cccc(C(F)(F)F)c2)CC1	3	2	-14	-8	i	/	19	-9
CC1=C(C(=O)Nc2ccccc2)C(c2ccc(N(C)C)cc2)NC(=O)N1 (stereo unspecified)	-9	7	-15	1	/	10	-5	/
Cc1cccn2c(CN3CCCC(c4ccccc4)C3)c(C(=O)N3CCOCC3)nc12 (stereo unspecified)	0	1	-21	-2	i	-17	-4	2
Cc1ccc(OCc2nnc(SC3CCc4ccccc4C3=O)n2C)cc1 (stereo unspecified)	0	2	-11	-2	i	/	1	12

Source: PubChem (several laboratories)
